Cruzain Triton: qHTS Assay for Promiscuous and Specific Inhibitors of Cruzain (with detergent). Cruzipain (Trypanosoma cruzi), P25779. purified cruzain, Z-FR-AMC fluorescence, 0.01% Triton. Potency, µM, for inactives: max response, negative = inhibition, actives largely listed as inhibitors. 0.43% of 200,000 active;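 note: plate controls were neutral wells for no effect and buffer without enzyme for full effect; nearly all actives have a fitted effect of over 40% in size; top concentration of the series not given in the record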
Target sequence (P25779 123-467 limits assumed): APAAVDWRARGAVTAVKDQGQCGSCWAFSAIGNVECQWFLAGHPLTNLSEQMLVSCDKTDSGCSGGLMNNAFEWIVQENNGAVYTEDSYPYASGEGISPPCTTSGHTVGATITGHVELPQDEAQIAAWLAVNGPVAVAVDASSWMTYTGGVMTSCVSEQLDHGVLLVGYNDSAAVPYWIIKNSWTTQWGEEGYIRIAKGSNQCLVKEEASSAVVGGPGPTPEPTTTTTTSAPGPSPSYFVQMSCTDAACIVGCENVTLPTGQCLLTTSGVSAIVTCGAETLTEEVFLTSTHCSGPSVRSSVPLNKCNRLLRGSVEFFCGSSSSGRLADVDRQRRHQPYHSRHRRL
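Steps: dispense cruzain (1.5 nM final) in acetate buffer pH 5.5 with DTT and 0.01% Triton X-100; pin-transfer compounds; incubate 15 min RT; add Z-FR-AMC (2 uM final); read fluorescence every 30 s, using the 60 s intensity change.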
MARV entry inh: qHTS for inhibitors of binding or entry into cells for Marburg Virus; AID 540276, 2011; 1.8% of 300,000 active; Marburg virus pseudotyped entry inhibition, cell reporter; control for the full effect not named in the record; about a third of the inactives were read at about 46 µM; Potency, µM (doses to about 37.8 µM), for inactives: at the top dose activity change, negative = inhibition, most hits filed as inhibitors; active = well fitted inhibition curve with a large enough effect; inconclusive = small, poorly fitted or top-dose-only effect, or effect the other way; inactive = flat fitted curve, though single readings scatter; tested in HEK293 cells; about a fifth of its hits are not listed in these tables; note: % is set by controls: 0 for no effect and ±100 for the full control effect; luciferase read-out
StopGo reporter: High Throughput Screening for Foot and Mouth Disease Virus Antivirals; 1.2% of 410,000 active; human cells with a luciferase reporter of 2A StopGo recoding; control for the full effect not named in the record; Potency, µM (series often up to 57.9 µM), for inactives: at the highest dose signal change, negative = less light; active = well fitted falling curve with a large enough effect; inconclusive = small, poorly fitted or top-dose-only effect; inactive = no such curve, though single readings can be large or run the other way; tested in HEK293T cells; note: % is set by controls: 0 for no effect and ±100 for the full control effect; nearly all actives have a fitted effect of over 45% in size; luciferase light after 4 h
NS1 function inh: qHTS Assay for Inhibitors of Influenza NS1 Protein Function | Potency, µM (highest dose often 46.1 µM), without a hit: top-dose activity, positive = more growth | AID 2326, 2010 | 0.4% of 270,000 active | S. cerevisiae slowed by influenza A NS1, growth recovery by OD600; active means well fitted rising curve with a large enough effect; inconclusive means small, poorly fitted or top-dose-only effect; inactive means no such curve, though single readings can be large or run the other way; note: nearly all actives have a fitted effect of over 50% in size
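A cell-based growth assay was used: compounds that relieve NS1-induced slow growth of budding yeast raise OD600. Assay medium was yeast nitrogen base with ammonium sulphate and -URA supplement, pH 6.0, with 2% galactose.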
RE007 growth inh: qHTS Assay for Inhibitors of the HIV-1 protein Vpr | 0.21% of 360,000 active | S. pombe RE007 Vpr strain, BacTiter-Glo ATP luminescence, 24 h; control for the full effect not named in the record | Potency, µM (highest dose often 92.2 µM), for the others: at the highest dose activity change, negative = less growth; active = well fitted falling curve with a large enough effect; inconclusive = small, poorly fitted or top-dose-only effect; inactive = no such curve, though single readings can be large or run the other way;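 note: % is set by controls: 0 for no effect and ±100 for the full control effect; nearly all actives have a fitted effect of over 50% in size; the assay follows cell death caused by Vpr and the record does not say whether a fall means rescue or toxicity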
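Fission yeast RE007 carrying one integrated HIV-1 vpr copy, seeded at OD 0.01 in PMG+AL medium with 23 nL pinned compound. Grown 24 h at 30 degrees; viability read by BacTiter-Glo luminescence after 5 min.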
LASV entry inh: qHTS for Inhibitors of binding or entry into cells for Lassa Virus; Lassa virus pseudotype entry inhibition, cell reporter; control for the full effect not named in the record; Potency, µM (doses to about 37.9 µM), without a hit: at the highest dose activity change, negative = inhibition, most hits filed as inhibitors; 1.2% of 300,000 active; AID 540256, 2011; active means well fitted inhibition curve with a large enough effect; inconclusive means small, poorly fitted or top-dose-only effect, or effect the other way; inactive means flat fitted curve, though single readings scatter; tested in HEK293 cells; note: % is set by controls: 0 for no effect and ±100 for the full control effect; nearly all actives have a fitted effect of over 50% in size; luciferase read-out
Cruzain inh noDet: qHTS Assay for Promiscuous and Specific Inhibitors of Cruzain (without detergent); Cruzipain (Trypanosoma cruzi), P25779; purified cruzain, Z-FR-AMC fluorescence, no detergent; Potency, µM, inactives show max response, negative = inhibition, most hits filed as inhibitors; 2.3% of 200,000 active;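 note: plate controls were enzyme without inhibitor for no effect and buffer without enzyme for full effect; nearly all actives have a fitted effect of over 40% in size; top concentration of the series not given in the record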
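Detergent-free condition (0.00005% Triton X-100) in acetate buffer pH 5.5 with DTT. 1.5 nM enzyme and compound were pre-mixed 15 min, then 2 uM Z-FR-AMC substrate added; reaction progress from fluorescence change between first and third reads (60 s).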
SARS PLP yeast: qHTS of Yeast-based Assay for SARS-CoV PLP; Potency, µM (doses to about 32.9 µM), without a hit: at the top dose activity, positive = growth rescue; S. cerevisiae expressing SARS-CoV PLpro, growth rescue; control for the full effect not named in the record; 0.19% of 330,000 active; active means well fitted rising curve with a large enough effect; inconclusive means small, poorly fitted or top-dose-only effect; inactive means no such curve, though single readings can be large or run the other way; note: 0% is about no effect; nearly all actives have a fitted effect of over 55% in size; growth read by luminescence after 48 h
Numbers without * were called inactive; ? = inconclusive; / = no result given; & = joins results of further samples; [ ] = another dose, or the depositor's remark. Unless noted, calls come from the whole dose curve; as a rule, active = well fitted curve in the direction sought with a large enough effect; inconclusive = small, poorly fitted or top-dose-only effect, or another doubt; inactive = no such curve, though single readings can be large; an effect the other way counts as inactive or inconclusive. Potency is the fitted concentration of half-maximal effect.

SMILES	Cruzain Triton	MARV entry inh	StopGo reporter	NS1 function inh	RE007 growth inh	LASV entry inh	Cruzain inh noDet	SARS PLP yeast
COc1cccc(C2CC(=O)Nc3c2c(=O)nc2c(C)cccn32)c1 (stereo not given)	0.4%	-6%[46.1 µM]	-15%	/	/	0%[46.1 µM]	3%	/
O=c1[nH]c(CSc2nnc(NCCCN3CCOCC3)s2)nc2cc(Cl)ccc12	-0.5%	1%	16%	1%	6%	10%	4%	6%
COc1ccc(COCCN2CCN(S(=O)(=O)c3ccc(C)cc3)CCC2=O)cc1	1.9%&-1.4%	?	1%	-49%	3%	?	24%&4%	-13%
CNC(=O)c1c(NC(=O)c2cc(=O)c3ccccc3o2)sc2c1CCC2	1.3%	/	22%	/	/	-3%[46.1 µM]	-1%	/
Oc1ccc(Br)cc1CN1CCN(c2ccccc2)CC1	-8.8%	?	6%	-22%	-20%	?	-10%	1%
CCOC(=O)C1CCN(C(=O)c2n[nH]c(=O)c3ccccc23)CC1	7.3%	2%[46.1 µM]	24%	0%	4%	1%	-5%	7%
Cc1nc(SCC#N)c2c3c(sc2n1)CCC3	-8.1%	1%	-11%	11%	-1%	0%	9%	-3%
COc1ccc(C)cc1S(=O)(=O)N1CCN(S(=O)(=O)c2cc(C)ccc2OC)C(C)C1 (stereo not given)	-5.8%	?	35%[activator]	-21%	-1%	-12%	?	5%
CCCc1cc(-n2cnc3ccccc32)n2c(nc3ccccc32)c1C#N	-7.2%	-13%	1%	-2%	8%	-16%	1%	-7%
S=C1SCN(CCN2CCOCC2)CN1Cc1ccccc1	2.1%	-17%	10%	-170%	9%	0%	-6%	0%
CCNC(=S)SCCOc1ccc(C)cc1	-1.9%	0%	-8%	-29%	13%	-2%	2%	22%
Cc1nc(-c2cccc(NS(=O)(=O)c3ccccc3)c2)cs1	-9.2%	9%[46.1 µM]	68%[activator]	-31%	6%	16%	-8%	-18%
Cc1onc(-c2ccccc2Cl)c1C(=O)NCc1ccccn1	1.3%	-8%	10%	-1%[9.22 µM]	7%	2%	-4%	1%
Cn1c(=O)c2sccc2n2c(CCCC(=O)Nc3ccc(Cl)cc3)nnc12	0.2%	/	?	/	/	4%[46.1 µM]	-5%	/
N=C1SCC(=O)N1c1ncc(Cc2cccc(Cl)c2)s1	/	-14%[46.1 µM]	?	-61%	18µM*	-17%	/	-6%
CC(C)c1ccc(C2NC(C(=O)O)CS2)cc1 (stereo not given)	4.0%	17%	-23%	0%	-1%	3%	4%	-4%
CN(CC(=O)NCC(=O)Nc1ccc(F)cc1)CC(=O)Nc1ccc(Cl)c(C(F)(F)F)c1	/	-21%	-28%	/	-21%	2%	/	/
CCCN(CC1CC1)C(=O)COc1ccccc1C(=O)NCc1ccccc1	0.1%	?	-8%	-12%	6%	-3%	-11%	-6%
CC(C)c1ccc(NC(=O)c2cc(S(=O)(=O)N3CCCCC3)cn2C)cc1	-1.5%	/	-1%	/	/	5%[46.1 µM]	-1%	/
O=c1c2ccccc2ncn1Cc1ccccc1	/	-3%[46.1 µM]	-1%	-2%	9%	-15%	/	1%
Cc1cccc(NC(=S)NCCc2ccccc2)n1	/	?	21%	-5%	-16%	?	/	0%
O=C(NCCCNc1ccc([N+](=O)[O-])cc1Cl)c1ccccc1F	/	19%[46.1 µM]	?	/	5%	1%	/	-6%
CCOc1ccc(-c2cccc(NS(=O)(=O)c3ccc(C)s3)c2)nn1	-6.4%	/	0%	/	/	6%[46.1 µM]	-7%	/
CC1CCN(S(=O)(=O)c2ccc3c(ccn3CC(=O)O)c2)CC1	/	/	-6%	6%	-3%	/	/	-3%
CCOC(=O)C1CCN(C(=O)c2cc(COc3ccc(F)cc3F)on2)CC1	/	?	22%	-23%	4%	?	/	-5%
CCOC(=O)c1ccc(N2CCN(C(=O)c3ccccc3)CC2)c(NC(=O)c2ccco2)c1	/	?	-5%	11%	-15%	2%	/	0%
Cc1ccc2oc(C(=O)NCCCN3CCOCC3)c(C)c2c1	/	16%	21%	-1%	-14%	-17%	/	4%
Cn1nccc1NS(=O)(=O)c1ccc(NC(=O)C(F)(F)F)cc1	/	-4%[46.1 µM]	-10%	4%	-16%	22%	/	0%
CCOc1ccc(-n2ccc(=O)c(C(=O)Nc3ccc(S(=O)(=O)Nc4nccs4)cc3)n2)cc1	/	/	23%	16%	1%	/	/	-1%

7 compounds picked at random from those above:
SMILES	Cruzain Triton	MARV entry inh	StopGo reporter	NS1 function inh	RE007 growth inh	LASV entry inh	Cruzain inh noDet	SARS PLP yeast
CC(C)c1ccc(C2NC(C(=O)O)CS2)cc1 (stereo not given)	4.0%	17%	-23%	0%	-1%	3%	4%	-4%
N=C1SCC(=O)N1c1ncc(Cc2cccc(Cl)c2)s1	/	-14%[46.1 µM]	?	-61%	18µM*	-17%	/	-6%
O=C(NCCCNc1ccc([N+](=O)[O-])cc1Cl)c1ccccc1F	/	19%[46.1 µM]	?	/	5%	1%	/	-6%
CCCc1cc(-n2cnc3ccccc32)n2c(nc3ccccc32)c1C#N	-7.2%	-13%	1%	-2%	8%	-16%	1%	-7%
Cc1ccc2oc(C(=O)NCCCN3CCOCC3)c(C)c2c1	/	16%	21%	-1%	-14%	-17%	/	4%
CCNC(=S)SCCOc1ccc(C)cc1	-1.9%	0%	-8%	-29%	13%	-2%	2%	22%
Cc1onc(-c2ccccc2Cl)c1C(=O)NCc1ccccn1	1.3%	-8%	10%	-1%[9.22 µM]	7%	2%	-4%	1%

Laid out differently: entries from further up.
mol,Cruzain Triton,MARV entry inh,StopGo reporter,NS1 function inh,RE007 growth inh,LASV entry inh,Cruzain inh noDet,SARS PLP yeast
Cc1onc(-c2ccccc2Cl)c1C(=O)NCc1ccccn1,1.3%,-8%,10%,-1%[9.22 µM],7%,2%,-4%,1%
Cc1cccc(NC(=S)NCCc2ccccc2)n1,/,?,21%,-5%,-16%,?,/,0%

An unsorted share of the library, and some 4.7% of all compounds hit somewhere here.
